High-throughput results (PubChem BioAssay)
Sa growth inh = blocks Staphylococcus aureus growth | relative growth, % (concentration not given with the values) | S. aureus RN4220 growth, OD600, 20 h, 42 °C; stronger effect = lower value | AID 720641 | hit rate 0.53% among 170,000;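 active means growth at 42 °C up to 50% and 20 or more points under that at 30 °C, or under 10% at both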;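 further: 300 nL library stock went into each well; scaled to the means of positive and negative controls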
GIV Gai3 FP = blocks GIV peptide binding to rat Galpha-i3 | P08753 | percent of control (FP), % (no concentration beside the values) | Galpha-i3/FITC-GIV peptide fluorescence polarization, 90 min; stronger effect = lower value; scaled: aluminum fluoride 0%, vehicle 100% | hit rate 0.42% among 210,000;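 active means replicate mean at 85% of control or lower, very high polarization wells dropped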;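 further: wells of about 15 µL received 100 nL stock; the first replicate is given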
Target sequence (P08753 whole entry, looked up): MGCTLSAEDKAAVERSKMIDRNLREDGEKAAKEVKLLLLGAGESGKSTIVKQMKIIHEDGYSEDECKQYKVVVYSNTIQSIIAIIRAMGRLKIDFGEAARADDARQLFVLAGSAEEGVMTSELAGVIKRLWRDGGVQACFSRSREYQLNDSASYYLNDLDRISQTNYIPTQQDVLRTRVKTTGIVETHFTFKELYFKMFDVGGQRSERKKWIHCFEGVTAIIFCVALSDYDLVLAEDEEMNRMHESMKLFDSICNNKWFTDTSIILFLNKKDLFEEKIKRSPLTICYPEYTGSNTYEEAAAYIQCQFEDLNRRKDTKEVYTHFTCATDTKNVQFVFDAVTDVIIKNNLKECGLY
HCMV NEC inh = disrupts HCMV UL50-UL53 complex binding | HTRF UL50-UL53 interaction, normalized percent inhibition | hit rate 0.15% among 190,000 | AID 1918969 | inhibition, % (test concentration not listed);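 active means both replicates at 50% or more, plus weaker picks with an unusually low signal ratio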;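 further: stock transfer was 100 nL into about 20 µL; 0% = negative control wells and 100% = wells with untagged competitor protein; inactives centre near -12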
Sa growth inh second temp = further read-out of Sa growth inh, marked with its call; relative growth, %; measured here: growth at 30 °C;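 optical density after 20 h as mean of two plates; 100% = untreated growth and lower means inhibition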
The depositor's hits bear a star; nt = not tested or not shown. Rows are unselected; any-hit rate near 0.8%.

A first look, 17 compounds:
SMILES	Sa growth inh	Sa growth inh second temp	GIV Gai3 FP	HCMV NEC inh
Cc1noc(C)c1CSCC(=O)NC1CCCc2ccccc21 (stereo not drawn)	98.2	103.5	nt	8.1
COc1ccc(NC(=O)c2csnn2)cc1Cl	105.8	80.1	97.8	-26.7
COc1ccc(NC(=O)c2oc3ccccc3c2NC(=O)C23CC4CC(CC(C4)C2)C3)c(OC)c1	108.2	84.0	103.6	-39.8
CCOc1ccc(NC(=O)c2sc3nc4c(cc3c2N)CN(Cc2ccccc2)CC4)cc1	100.3	87.6	100.1	-27.4
O=C(Cn1cc(S(=O)(=O)Cc2cccc(Cl)c2)c2ccccc21)NCCc1ccccc1	92.1	86.3	101.3	nt
COc1ccc(Oc2nc3c(C)cccn3c(=O)c2/C=C(\C#N)c2nc3ccccc3[nH]2)cc1	88.7	93.8	104.5	-27.0
Cc1ccc(S(=O)(=O)NC(=O)Nc2nc(-c3ccccc3)cs2)cc1	nt	nt	103.6	2.0
O=C(CC1Sc2ccccc2NC1=O)OCn1nnc2ccccc2c1=O (stereo not drawn)	98.8	96.3	nt	-30.8
Cc1cc(NC(=O)Cn2c3ccccc3c(=O)c3ccccc32)ccc1Br	nt	nt	104.4	-23.8
Cc1cccc(NC(=O)CNC(=O)c2ccc(S(=O)(=O)NCc3ccco3)cc2)c1C	103.8	99.2	nt	10.0
Cc1nc(N(C)C)cc(N2CCN(C(=O)C3CCCCC3)CC2)n1	nt	nt	100.3	-20.6
CCOC(=O)c1ccc2c(c1)N(Cc1ccc(F)cc1Cl)C(=O)c1ccccc1S2	118.2	87.8	104.5	nt
O=C(Nc1ccc(OCc2ccccc2)cc1)N1CCN(c2ccccn2)CC1	109.1	99.2	103.9	1.1
O=C1CC(C(=O)N2CCN(c3ccc(F)cc3)CC2)CN1CCc1ccccc1 (stereo not drawn)	100.5	82.3	101.3	1.5
N#Cc1ccc(-c2cccnc2)nc1SCC(=O)O	94.0	93.9	98.5	nt
CCC(=O)Nc1ccc2nc(-c3ccccc3)[nH]c2c1	104.8	95.8	nt	3.5
COC(=O)c1sc(S(=O)(=O)NC23CC4CC(CC(C4)C2)C3)c(C(=O)OC)c1C	74.9	89.8	113.3	nt

The list itself (from the top)
SMILES	Sa growth inh	Sa growth inh second temp	GIV Gai3 FP	HCMV NEC inh
Cc1noc(C)c1CSCC(=O)NC1CCCc2ccccc21 (stereo not drawn)	98.2	103.5	nt	8.1
COc1ccc(NC(=O)c2csnn2)cc1Cl	105.8	80.1	97.8	-26.7
COc1ccc(NC(=O)c2oc3ccccc3c2NC(=O)C23CC4CC(CC(C4)C2)C3)c(OC)c1	108.2	84.0	103.6	-39.8
CCOc1ccc(NC(=O)c2sc3nc4c(cc3c2N)CN(Cc2ccccc2)CC4)cc1	100.3	87.6	100.1	-27.4
O=C(Cn1cc(S(=O)(=O)Cc2cccc(Cl)c2)c2ccccc21)NCCc1ccccc1	92.1	86.3	101.3	nt
COc1ccc(Oc2nc3c(C)cccn3c(=O)c2/C=C(\C#N)c2nc3ccccc3[nH]2)cc1	88.7	93.8	104.5	-27.0
Cc1ccc(S(=O)(=O)NC(=O)Nc2nc(-c3ccccc3)cs2)cc1	nt	nt	103.6	2.0
O=C(CC1Sc2ccccc2NC1=O)OCn1nnc2ccccc2c1=O (stereo not drawn)	98.8	96.3	nt	-30.8
Cc1cc(NC(=O)Cn2c3ccccc3c(=O)c3ccccc32)ccc1Br	nt	nt	104.4	-23.8
Cc1cccc(NC(=O)CNC(=O)c2ccc(S(=O)(=O)NCc3ccco3)cc2)c1C	103.8	99.2	nt	10.0
Cc1nc(N(C)C)cc(N2CCN(C(=O)C3CCCCC3)CC2)n1	nt	nt	100.3	-20.6
CCOC(=O)c1ccc2c(c1)N(Cc1ccc(F)cc1Cl)C(=O)c1ccccc1S2	118.2	87.8	104.5	nt
O=C(Nc1ccc(OCc2ccccc2)cc1)N1CCN(c2ccccn2)CC1	109.1	99.2	103.9	1.1
O=C1CC(C(=O)N2CCN(c3ccc(F)cc3)CC2)CN1CCc1ccccc1 (stereo not drawn)	100.5	82.3	101.3	1.5
N#Cc1ccc(-c2cccnc2)nc1SCC(=O)O	94.0	93.9	98.5	nt
CCC(=O)Nc1ccc2nc(-c3ccccc3)[nH]c2c1	104.8	95.8	nt	3.5
COC(=O)c1sc(S(=O)(=O)NC23CC4CC(CC(C4)C2)C3)c(C(=O)OC)c1C	74.9	89.8	113.3	nt
Cc1ccc(CN2CCN(C3CCN(C(=O)Nc4ccccc4C(F)(F)F)CC3)C(=O)C2=O)cc1	106.9	91.7	96.8	nt
COC(=O)C1=C(O)C2(C(=O)O)CC(C(=O)OC)=C(O)C(C(=O)O)(C1)C2	110.0	91.3	104.2	-34.0
CCc1ccc(-c2nc(CN3CCC(C(=O)NC4CC4)CC3)c(C)o2)cc1	94.1	90.1	108.9	nt
COc1ccc(N2CCN(C(=O)c3cc4c(=O)n(Cc5ccccc5)ccc4nc3C)CC2)cc1	93.7	90.9	99.1	nt
CCc1ccc2[nH]c(C(=O)N(C)c3ccc(F)cc3F)cc2c1	101.3	84.1	100.3	-10.8
COc1ccc(OC)c(C2C(C#N)=C(N)OC3=C2C(=O)CC(c2ccccc2)C3)c1 (stereo not drawn)	nt	nt	101.7	7.9
Cc1sc2c(c1C)CSC(C(=O)O)=C2	59.4	43.3	91.7	nt
O=C(NCc1ccccn1)c1ccccc1	84.2	89.9	nt	-10.5

Whole records, looked up by structure.
Entry for N#Cc1ccc(-c2cccnc2)nc1SCC(=O)O = Sa growth inh: 94.0; Sa growth inh second temp: 93.9; GIV Gai3 FP: 98.5; HCMV NEC inh: nt
Entry for COc1ccc(OC)c(C2C(C#N)=C(N)OC3=C2C(=O)CC(c2ccccc2)C3)c1 (stereo not drawn) = Sa growth inh: nt; Sa growth inh second temp: nt; GIV Gai3 FP: 101.7; HCMV NEC inh: 7.9

Going on with the list:
SMILES	Sa growth inh	Sa growth inh second temp	GIV Gai3 FP	HCMV NEC inh
O=c1c(S(=O)(=O)c2ccccc2)cn(Cc2cccc(F)c2)c2cc(N3CCCC3)c(F)cc12	77.6	86.9	109.4	nt
Cc1ccc(S(=O)(=O)c2c(C)cc(C)n(CC(=O)NC3CCCCC3)c2=O)cc1	nt	nt	96.2	-0.2
Cc1ccc2nc(N3CCC(C(=O)N4CCN(c5cccc(Cl)c5)CC4)CC3)[nH]c2c1	29.6	11.8	101.9	nt
Cc1nc2sccn2c(=O)c1S(=O)(=O)Nc1cc(Cl)ccc1O	93.2	78.4	111.5	nt
COc1ccc(Cc2nnc3sc(-c4cccc(OC)c4)nn23)cc1	nt	nt	103.7	-10.8
N#CCc1nc2ccccc2o1	126.6	72.0	nt	-40.6
CC1(C)C(=O)N(CC(=O)N2CCCC2)c2ccc(S(=O)(=O)N3CCCCC3)cc21	nt	nt	105.2	-34.9
CCc1ccc(NC(=O)C2CCCN2S(=O)(=O)c2ccc3c(c2)n(C)c(=O)c(=O)n3C)cc1 (stereo not drawn)	111.4	98.7	107.6	-23.4
N=c1c2c(-c3ccccc3)c(-c3ccccc3)n(Cc3ccco3)c2ncn1CCCN1CCOCC1	88.6	82.7	103.4	2.6
COc1cccc(OC)c1C(=O)N1CCN(c2ncnc3scc(-c4ccccc4)c23)CC1	110.2	83.0	108.2	11.3
CC(C)Cn1cc(NC(=O)NCCCN(C)c2ccccc2)c2ccccc2c1=O	nt	nt	95.9	3.9
CC(=O)c1ccc(NC(=O)CCc2c(C)nn(-c3ccc4nnc(C)n4n3)c2C)cc1	121.0	80.6	104.1	nt
CN(C)c1cccc(N=Cc2c(O)n(Cc3ccc(F)cc3)c(=O)[nH]c2=O)c1	86.8	79.0	107.9	-20.3
Cc1cccc(-n2nc(C)c(C(=O)N3CCN(c4ccccc4)CC3)c2-n2cccc2)c1	76.8	88.8	95.3	nt
O=C(NC1CC1)c1c[nH]c2ccc(S(=O)(=O)Nc3cccc(C(F)(F)F)c3)cc2c1=O	97.7	96.0	109.1	8.7
COc1ccc(S(=O)(=O)N(CC(=O)O)C2CCCCC2)cc1OC	94.2	100.6	nt	0.0
CNC(=O)COc1ncnc2sccc12	95.7	95.9	nt	-4.0
CN(C(=O)C1CCN(c2ccc(-c3cccc(F)c3)nn2)CC1)C1CCCCC1	nt	nt	99.1	-42.8
Cc1ccc(CCNC(=O)c2cnc3c(C)cccn3c2=O)cc1	101.3	89.0	100.0	nt
Oc1ccc(Cl)cc1N=Cc1ccco1	113.4	83.5	nt	-14.2
Cc1c(Cl)cccc1NC(=O)C1CCCN(c2nnc(-n3c(C)ccc3C)s2)C1 (stereo not drawn)	98.1	91.2	99.1	-5.8
c1ccc(CSc2ncn[nH]2)cc1	86.2	81.7	nt	0.2
CCN(CC)c1ncc(C(=O)O)cc1NS(=O)(=O)c1ccc(Br)cc1	nt	nt	85.4*	-4.3
COc1ccc2[nH]c(C(=O)NCCNc3cccc(C(F)(F)F)n3)cc2c1	85.3	73.7	109.5	-20.1
C=CCNC(=O)C1=CC(c2ccc(C)cc2)=NS(=O)(=O)N1C	97.3	89.9	96.0	nt

Going on with the list.
SMILES	Sa growth inh	Sa growth inh second temp	GIV Gai3 FP	HCMV NEC inh
CCOC(=O)c1cc2c(ccn2-c2ccc(F)cc2)n1CC(=O)NC1CCCCC1	81.5	86.2	101.2	0.0
CCOC(=O)N1CCC(NC(=O)c2cnn(-c3ccc(F)cc3)c2-n2cccc2)CC1	117.8	93.1	100.7	nt
COc1cccc2cc(C(N)=O)c(=Nc3cc(C(F)(F)F)ccc3Cl)oc12	nt	nt	99.4	-17.0
O=C(NCC1CCCO1)c1ccc(N2CCNCC2)c(NS(=O)(=O)c2ccc(Cl)cc2)c1 (stereo not drawn)	nt	nt	99.9	-5.4
c1cnn(-c2nc(N3CCOCC3)nc(N3CCOCC3)n2)c1	nt	nt	102.5	-24.0
Cn1cc(C=C2C(=O)OC3(CCCCC3)OC2=O)c2ccccc21	115.2	84.3	102.5	nt
COc1ccc(N(C(=O)/C=C/c2ccc(OC)c(OC)c2)C2=CC3CCC(C2)N3C)cc1 (stereo not drawn)	82.1	89.3	97.9	nt
CC(=O)Nc1cc(C(C)(C)C)nn1C	83.2	101.7	106.8	12.4
CCN(Cc1ccccc1)C(=O)Cn1c(=O)n(C2CCCCC2)c(=O)c2ccccc21	84.7	86.3	101.7	nt
Cc1ccc2nc3c(cc(C(N)=O)c(=N)n3Cc3cccnc3)c(=O)n2c1	102.9	77.9	102.3	nt
O=C(NCCCN1CCCC1=O)c1ccc2c(c1)ncn2C1CCCCC1	106.0	87.9	102.9	nt
O=C1c2oc3ccccc3c(=O)c2C(c2cccc(O)c2)N1Cc1ccc(F)cc1 (stereo not drawn)	96.3	87.8	99.9	-2.3
CN(C)c1cccc(C(=O)N2CC3(C)CC2CC(C)(C)C3)c1 (stereo not drawn)	106.2	87.6	nt	-2.3
CN(C)S(=O)(=O)Nc1ccc(-c2cn3ccsc3n2)cc1	82.1	83.6	101.2	nt
Cc1ccc2[nH]c(=O)c(CN(CC3CCCO3)C(=O)c3ccco3)cc2c1 (stereo not drawn)	94.7	89.5	nt	-0.5
CN(c1ncnc2c1cnn2-c1ccc(Cl)cc1)C1CCCCC1	98.7	88.3	109.2	nt
Cc1ccc2nc(-c3ccc(NC(=O)C4CCC4)cc3)sc2c1	99.7	87.6	103.0	-35.6
OCCN/N=C/c1cc(Cl)cc(Cl)c1O	70.5	44.2	108.7	-74.3
Cc1cccc(Nc2nc(C)c3ncn(-c4cccc(C)c4)c3n2)c1	nt	nt	101.8	-27.4
Cc1c(OCC(=O)NCc2ccccc2Cl)ccc2c3c(c(=O)oc12)CCC3	83.0	90.9	nt	-18.0
COc1ccc(C2=NN3C(C2)c2cc(OC)ccc2OC3c2cccc([N+](=O)[O-])c2)cc1 (stereo not drawn)	nt	nt	107.4	3.9
COc1cc(NC(=O)CN(c2ccc(C)cc2)S(=O)(=O)c2cccc3nonc23)cc(OC)c1	97.3	87.5	100.8	-32.5
O=C(CSc1nc(-c2ccco2)cc(C(F)(F)F)n1)N1CCCC1	103.9	77.3	95.0	-58.5
CC(=O)N1N=C(c2ccc(C)cc2)CC1c1cc2cc3c(cc2nc1Cl)OCO3 (stereo not drawn)	113.3	79.8	99.3	nt
Nc1nnc(CCS(=O)(=O)c2ccc3ccccc3c2)s1	114.5	87.2	101.7	-15.2

(further entries)
SMILES	Sa growth inh	Sa growth inh second temp	GIV Gai3 FP	HCMV NEC inh
COC(=O)c1cc(NC(=O)CC2Oc3ccccc3NC2=O)cc(C(=O)OC)c1 (stereo not drawn)	nt	nt	97.7	-11.3
COCC1=C(C(=O)OC)C(c2cccnc2)C(C#N)=C(N)O1 (stereo not drawn)	nt	nt	102.7	-25.8
COc1ccc(S(=O)(=O)CCC(=O)N(C)c2cc(C)ccc2C)cc1	101.4	84.3	nt	-0.5
CCOC(=O)c1[nH]c(C)c(CCC(=O)Nc2cc(Cl)ccc2C)c1C	99.9	87.2	102.1	nt
Cn1c(=O)c(-c2noc(CCC(=O)Nc3ccc(Cl)cc3)n2)nn(-c2ccc(F)cc2)c1=O	nt	nt	104.8	-36.6
O=S(=O)(c1ccc(-c2csc(=Nc3ccc(F)cc3)n2CCCCCCO)cc1)N1CCCC1	91.3	61.4	103.3	1.8
Cc1cc(C)nc(NC(c2ccsc2)c2c(NC(=O)c3ccccc3)sc(C)c2C)n1 (stereo not drawn)	nt	nt	105.8	-25.5
CN(Cc1ccccc1)S(=O)(=O)c1ccc(C(=O)Nc2nc3ccc4ccccc4c3s2)cc1	111.2	89.8	99.1	nt
CCSCCOC(=O)C1=C(C)N(C)C(=O)NC1c1ccccc1OCc1ccccc1 (stereo not drawn)	nt	nt	103.5	-17.1
